# Screens from PubChem.
# ALR inh = blocks human ALR sulfhydryl oxidase activity | purified ALR, DTT oxidation, H2O2 HRP-luminol luminescence | inhibition, % (test concentration not listed) | 3.8% of 290,000 active;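 active = mean and each replicate at 75% or more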;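 note: stock transfer was 7.5 nL into about 7.5 µL; 0% = neutral wells and 100% = wells with inactivated enzyme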
# Calb FLC = affects C. albicans growth with fluconazole. C. albicans CaCi-2 (fluconazole-resistant clinical isolate) + fluconazole, Alamar Blue growth, 48 h. growth inhibition, % (no concentration beside the values). 0.57% of 300,000 active;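 active = most replicates above 75%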;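 note: all wells also contain fluconazole at 8 µg/ml as a sub-toxic cotreatment; 0% = median of DMSO wells and 100% = median of geldanamycin control wells; wells of about 8 µL received 7.5 nL stock; the first replicate is given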
# Bfl-1 A1 inh = inhibitors of the anti-apoptotic protein A1, read as caspase activation; MEF A1-2A-BIM cells, Caspase-Glo 3/7 luminescence, 3 h; percent of clofoctol response, vehicle zero; caspase activation, % (test concentration not listed); AID 2462; 0.066% of 330,000 active;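 active = over half of replicate activation scores above 10%, or exactly half above 10 with the replicate mean above 10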;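 note: wells of about 30 µL received 50 nL stock; many hits fall short of the cut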
# rRNA inh HTS = inhibitors of bacterial rRNA selective over humanized ribosomes | E. coli WT GFP vs humanized-ribosome RFP mutants, fluorescence, 24 h; active compounds read low; DMSO median 0, no signal -100 | GFP signal change (wild-type ribosome), % (no concentration beside the values) | 1.6% of 350,000 active | AID 720706;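 active = significant combined selectivity score with lowered wild-type GFP, culture density cut under 30%, mutant RFP and density less affected; inactive = any of these conditions unmet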; note: one replicate is shown; some compounds called inactive have numbers as strong as hits
# LANA-H2A inh = blocks KSHV LANA binding to histone H2A/H2B; Q9QR71; cell-free LANA-H2A/H2B peptide, fluorescence polarization; 0.6% of 320,000 active; inhibition, % (concentration not given with the values); in the data active = inhibition mostly above about 10%, no sharp cut-off; inactive = mostly below about 6.7%;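 note: stock transfer was 7.5 nL into about 10 µL; 0% = median of vehicle wells and 100% = median of positive control wells; one replicate is shown; the record names a cut of 25% in any replicate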
# Target sequence (Q9QR71 whole entry, looked up): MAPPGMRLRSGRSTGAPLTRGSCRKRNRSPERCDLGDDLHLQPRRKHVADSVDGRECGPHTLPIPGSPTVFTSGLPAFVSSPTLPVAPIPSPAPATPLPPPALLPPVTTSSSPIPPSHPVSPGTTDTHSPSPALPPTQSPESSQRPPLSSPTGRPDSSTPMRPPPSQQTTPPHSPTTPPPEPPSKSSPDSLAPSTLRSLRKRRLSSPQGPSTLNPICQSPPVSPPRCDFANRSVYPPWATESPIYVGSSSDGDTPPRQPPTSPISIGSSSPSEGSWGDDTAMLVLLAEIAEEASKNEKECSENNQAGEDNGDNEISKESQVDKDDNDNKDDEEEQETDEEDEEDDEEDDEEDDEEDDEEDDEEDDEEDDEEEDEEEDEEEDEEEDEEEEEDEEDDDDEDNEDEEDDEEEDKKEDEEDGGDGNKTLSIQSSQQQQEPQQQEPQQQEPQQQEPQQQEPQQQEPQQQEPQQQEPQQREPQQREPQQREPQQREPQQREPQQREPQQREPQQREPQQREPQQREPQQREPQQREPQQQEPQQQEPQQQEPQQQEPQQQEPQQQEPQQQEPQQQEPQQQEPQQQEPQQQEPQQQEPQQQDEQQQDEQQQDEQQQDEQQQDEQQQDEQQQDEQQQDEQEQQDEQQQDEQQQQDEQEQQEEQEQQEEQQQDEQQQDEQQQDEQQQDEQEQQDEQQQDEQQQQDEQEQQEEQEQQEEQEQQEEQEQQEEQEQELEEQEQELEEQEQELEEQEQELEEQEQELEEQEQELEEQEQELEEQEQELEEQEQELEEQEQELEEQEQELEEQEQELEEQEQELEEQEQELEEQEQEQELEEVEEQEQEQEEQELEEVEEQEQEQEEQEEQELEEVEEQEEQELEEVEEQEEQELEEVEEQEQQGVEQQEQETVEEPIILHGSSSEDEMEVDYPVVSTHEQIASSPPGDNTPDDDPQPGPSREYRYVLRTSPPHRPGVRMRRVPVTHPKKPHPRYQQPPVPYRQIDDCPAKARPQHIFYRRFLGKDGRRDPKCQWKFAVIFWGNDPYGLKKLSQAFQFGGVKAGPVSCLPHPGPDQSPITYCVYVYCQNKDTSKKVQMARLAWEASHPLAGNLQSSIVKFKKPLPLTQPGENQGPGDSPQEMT
# Beta cell apopt = beta cell apoptosis inhibition. INS-1E cytokine-induced death, ATP luminescence, 48 h; percent of positive-control rescue, neutral wells zero. AID 435005. protection from apoptosis, % (test concentration not listed). 0.8% of 300,000 active;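 active = all replicates at 75% or more, or half of them and the mean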;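 note: 0% = cytokine-treated negative control wells and 100% = positive control rescue; higher means more ATP so stronger rescue from cytokine killing; wells of about 40 µL received 100 nL stock; the first replicate is given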
# Beta2AR agonist = agonists of human beta-2 adrenergic receptor inducing internalization; 0.43% of 340,000 active; Am2.2-beta2AR cells, FAP receptor internalization, flow cytometry; reference of the scale not given here; response, % (no concentration beside the values); P07550;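 active = response above a set limit, near 3 SD of response in nonfluorescent compounds, cut at about 42% in these data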;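 note: stock transfer was 100 nL into about 11 µL; a reference agonist was the positive control; negative values mostly stem from fluorescent compounds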
# T cruzi repl = blocks replication of Trypanosoma cruzi | T. cruzi beta-gal in NIH3T3, luminescence, 90 h | inhibition, % (no concentration beside the values) | 1.4% of 300,000 active | AID 1885;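 active = mean inhibition across valid replicates above about 55%, limit read from the data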;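 note: signal also drops with host cell toxicity which is not excluded here; 0% = plate median of DMSO wells and 100% = zero luminescence signal; higher percent means less beta-gal luminescence so fewer parasites; stock transfer was 50 nL into about 50 µL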
# rRNA inh HTS OD600 = recorded beside rRNA inh HTS, whose call it bears; OD600 change, %; measured here: OD600 growth;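 optical density of the mix in the first replicate; 0 = DMSO median and -100 = no signal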
# rRNA inh HTS RFP = recorded beside rRNA inh HTS, whose call it bears; RFP signal change, %; measured here: RFP humanized mutant strains;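 first replicate; 0 = DMSO median and -100 = no signal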
# An asterisk follows results filed as active; x = not tested or not shown. Some of the compounds tested. The share of hits here may be higher or lower than overall.
canonical_smiles	ALR inh	Calb FLC	Bfl-1 A1 inh	rRNA inh HTS	rRNA inh HTS OD600	rRNA inh HTS RFP	LANA-H2A inh	Beta cell apopt	Beta2AR agonist	T cruzi repl
CCOC(=O)c1cnn(-c2ccccc2)c1NC(=O)CN1CCCCC1	-3	-2	0.5	5	11	0.0	-3.8	-3	5	-3
Cc1nn(Cc2ccc(Cl)c(Cl)c2)c(C)c1NC(=O)c1cc(C2CC2)on1	0	4	0.3	-35	-42	-6.1	-2.1	-1	-4	-6
O=C(/C=C/c1c(F)cccc1Cl)Nc1ccncc1	x	-1	-5.8	x	x	x	-7.1	-3	-1	-58
Cc1cccc(N2CCN(CCCNC(=O)c3ccc(NC(=O)C4=CSCCO4)cc3)CC2C)c1 (stereo unspecified)	43	-2	0.0	-14	-29	2.5	3.7	1	-4	19
COc1ccc(OCCn2c(=O)sc3ccccc32)cc1	-23	-22	0.4	-31	-34	-9.0	-0.9	3	-14	-8
Cc1cccc(NC(=O)c2nc[nH]c2C(=O)N[C@@H](CC(C)C)C(=O)OC(C)(C)C)c1	-6	3	-1.8	5	-1	-0.3	-2.3	46	24	39
COc1ccccc1OCc1ccc(C(=O)Nc2cc(OC)c(OC)c(OC)c2)o1	-10	-2	2.1	-22*	-18*	-4.2*	2.6	-1	3	-8
COc1ccc(/C=C2/C(=O)N(c3cccc(F)c3)N=C2C)c(OC)c1	32	7	0.3	4	1	0.9	-3.8	x	-7	-16
CCOC(=O)c1cc(C(=O)c2cc(F)ccc2O)coc1=N	-1	11	-0.5	x	x	x	-4.1	0	1	-9
COc1ccc(C(CC(=O)O)NC(=O)c2cccs2)cc1 (stereo unspecified)	-4	3	1.3	x	x	x	-0.9	1	5	2
CC(=O)/C(=N/Nc1ccccc1Cl)Sc1nnc(C(O)c2ccccc2)n1-c1ccccc1 (stereo unspecified)	8	0	0.2	x	x	x	0.2	-3	-1	19
COc1ccc(N2C(=NC(=O)C(C)Oc3ccccc3)SC3CS(=O)(=O)CC32)cc1 (stereo unspecified)	-2	-6	-1.1	3	8	1.7	3.3	-5	-5	-7
O=S(=O)(O)c1ccc(N=NNc2ccc(Br)cc2)cc1	0	-2	-6.1	-12	0	-2.6	-0.5	-6	-13	-3
O=C1CC(N2CCN(c3ccc(O)cc3)CC2)C(=O)N1c1ccc2c(c1)OCO2 (stereo unspecified)	99*	0	-0.2	14	21	2.4	-2.5	-2	0	-5
COc1ccc2[nH]c(CN3CCN(CC=C(C)C)C(CCO)C3)c(C)c2c1 (stereo unspecified)	-14	-10	-0.1	24	18	6.0	1.3	-4	5	41
CCOC(=O)Cn1c(=O)oc2cc(S(=O)(=O)NCCCc3ccccc3)ccc21	1	-1	-1.1	-6	-13	-0.5	-1.4	-3	-2	-11
Cc1ccnc(NS(=O)(=O)c2cccs2)c1	-8	10	0.3	x	x	x	-8.6	0	-6	5
CCCCN(C(=O)NCCCCCCNC(=O)N(CCCC)C1CCS(=O)(=O)C1)C1CCS(=O)(=O)C1 (stereo unspecified)	-7	-2	0.0	-1	5	-2.3	1.4	-3	3	5
C/C(=N\Nc1nc(Nc2ccccc2)nc(N2CCOCC2)n1)c1cccs1	-2	12	-0.7	-7	-12	6.0	3.8	0	7	39
CN(C)/C=C/C(=O)c1ccc(-c2ccc(Cl)cc2Cl)o1	14	16	2.4	-31	-30	0.7	-11	-2	-9	7
CCC1CCCCN1C(=O)c1ccc(OC2CCN(C(=O)CCOC)CC2)cc1 (stereo unspecified)	1	2	1.0	9	1	0.4	8.0	2	-2	21
COCCOC(=O)c1sc(=S)n(CCOC)c1N	26	-24	0.8	13	-6	24	5.2	-9	6	-10
CCOC(=O)N1CCC(Nc2ncnc3c2cnn3-c2ccc(Cl)cc2)CC1	x	-4	x	14	10	-7.6	x	x	-8	25
Cc1nn2c(C)c(C(=O)Nc3ccccc3)cnc2c1C#N	-2	-4	-0.1	4	5	-6.3	-2.7	2	-2	-4
COc1cc(CC(=O)OCC(=O)NC2CC2)cc(OC)c1OC	-6	36	-0.7	11	7	-1.6	0.9	x	6	2
O=[N+]([O-])c1ccc(N2CCC(O)CC2)nc1	5	-2	2.3	1	2	0.1	-1.9	2	2	-17
C=CCn1c(SCC(N)=O)nnc1-c1cnccn1	-7	-2	0.4	5	-14	0.9	-0.2	x	6	-4
OC(CNCCc1ccc(C(F)(F)F)cc1)COc1ccc2ccccc2c1 (stereo unspecified)	-158	105*	-1.2	-43	-74	-6.0	-5.1	34	11	45
CC(CCc1ccccc1)NC(=O)C1CCN(S(=O)(=O)N2CCCCC2)CC1 (stereo unspecified)	-19	0	0.3	x	x	x	2.7	-4	2	7
Cc1cc(C)c2nc(N3C(=O)C(O)=C(C(=O)c4ccco4)C3c3cccc(O)c3)sc2c1 (stereo unspecified)	99*	x	-0.1	-21	-36	12	x	-3	3	x
COc1ccccc1CN1CC(C(=O)NCc2nccn2C)CCC1=O (stereo unspecified)	-1	-4	-0.7	5	16	1.2	-4.5	x	1	-6
O=C1CN(C(=O)c2ccccc2)c2ccccc2N1	-9	5	0.5	x	x	x	0.5	-7	9	-13
CCOC(=O)C1CCN(Cc2ccc(OCc3ccccc3)c(OC)c2)CC1	-14	-11	0.8	x	x	x	7.2	0	-2	16
c1ccc2sc(NC3=NCN(CC4CCCO4)CN3)nc2c1 (stereo unspecified)	-21	18	-0.3	2	-12	-3.9	0.5	x	-2	-6
Cc1c(C(=O)C(=O)N2CCN(C)CC2)c2ccccc2n1C	-3	1	0.5	4	3	-0.9	-4.0	-6	-8	-3
Cc1ccc(C(=O)CN(CCC(=O)O)S(=O)(=O)c2ccc([N+](=O)[O-])cc2)cc1	-61	x	-0.7	3	3	1.3	-1.4	-9	0	x
CCN(c1ccccc1)S(=O)(=O)c1ccc(C(=O)NCC(=O)Nc2ccc(F)c(F)c2F)cc1	6	x	-1.4	0	-6	3.9	-2.7	-3	4	x
Cc1c(C(=O)N2CCCCCC2)oc2ccccc12	-3	-2	0.6	x	x	x	4.4	0	4	11
Cc1ccc([N+](=O)[O-])cc1NC(=O)CSc1nncc2ccccc12	0	x	-1.2	1	9	-0.7	2.8	-4	-15	3
O=C1Cc2cc(NS(=O)(=O)c3ccc(F)cc3)cc3c2N1CCC3	2	2	2.3	-3	-4	2.4	-2.7	-14	4	-6

# Single records, as listed above. Screens in order: ALR inh | Calb FLC | Bfl-1 A1 inh | rRNA inh HTS | rRNA inh HTS OD600 | rRNA inh HTS RFP | LANA-H2A inh | Beta cell apopt | Beta2AR agonist | T cruzi repl
# Entry for Cc1cccc(N2CCN(CCCNC(=O)c3ccc(NC(=O)C4=CSCCO4)cc3)CC2C)c1 (stereo unspecified) → 43 | -2 | 0.0 | -14 | -29 | 2.5 | 3.7 | 1 | -4 | 19
# Entry for COc1ccccc1CN1CC(C(=O)NCc2nccn2C)CCC1=O (stereo unspecified) → -1 | -4 | -0.7 | 5 | 16 | 1.2 | -4.5 | x | 1 | -6
# Entry for COCCOC(=O)c1sc(=S)n(CCOC)c1N → 26 | -24 | 0.8 | 13 | -6 | 24 | 5.2 | -9 | 6 | -10
# Entry for Cc1ccc(C(=O)CN(CCC(=O)O)S(=O)(=O)c2ccc([N+](=O)[O-])cc2)cc1 → -61 | x | -0.7 | 3 | 3 | 1.3 | -1.4 | -9 | 0 | x
# Entry for Cc1cccc(NC(=O)c2nc[nH]c2C(=O)N[C@@H](CC(C)C)C(=O)OC(C)(C)C)c1 → -6 | 3 | -1.8 | 5 | -1 | -0.3 | -2.3 | 46 | 24 | 39

# New compounds follow:
canonical_smiles	ALR inh	Calb FLC	Bfl-1 A1 inh	rRNA inh HTS	rRNA inh HTS OD600	rRNA inh HTS RFP	LANA-H2A inh	Beta cell apopt	Beta2AR agonist	T cruzi repl
O=C(O)CN(CCc1ccccc1)S(=O)(=O)c1ccccc1	3	5	2.5	6	-2	-1.6	-5.4	-3	-5	-8
Cc1ccccc1-c1nnn(Cc2cccc(S(=O)(=O)N3CCOCC3)c2)n1	x	x	0.1	6	-24	-5.9	-1.8	2	1	x
O=C(NCCc1ccccc1)c1nc(CS(=O)(=O)c2ccc(Cl)cc2)no1	0	-5	0.3	1	-2	-0.5	5.1	-3	-3	1
Cc1cccc(NC(=O)C2CCCN2C(=O)OCC(C)C)c1 (stereo unspecified)	-3	-5	-0.2	x	x	x	-1.5	x	3	-4
COc1cc(/C=C/C(=O)OCC(=O)N(C)CC(=O)Nc2ccc(F)cc2)ccc1OC(F)F	-5	x	0.1	-1	-8	2.9	2.8	-1	-9	x
COc1ccccc1C(=O)NC(=O)COC(=O)c1nccnc1N	-15	x	0.3	4	3	-3.0	3.6	1	-2	x
CN(C)S(=O)(=O)c1ccc(NC=C(C#N)C#N)cc1	-5	-5	0.0	16	3	0.2	2.2	-4	14	6
O=C(c1ccccc1)c1ccc(C(=O)N2CCN(c3ccc(O)cc3)CC2)cc1	99*	x	-1.4	-4	11	0.9	-2.1	-5	-3	x
CC(=O)N1CCCc2cc(S(=O)(=O)Nc3ccc(C)cc3C)ccc21	8	27	0.7	-19	-25	0.5	-1.6	-9	9	-6
CC(NS(=O)(=O)c1ccccc1)C(c1cccs1)N1CCN(c2ccccc2)CC1 (stereo unspecified)	4	-27	-0.3	x	x	x	-3.6	9	11	-1
CCCCOc1ccc(C2=CSC3=NCCN23)cc1[N+](=O)[O-]	34	-11	-0.1	-8	-2	-2.1	-6.1	4	-16	-1
COC(=O)[C@H](CCSC)NC(=O)NCc1ccc(S(N)(=O)=O)cc1	-3	1	-0.1	x	x	x	4.8	-5	-8	8
NC(=O)c1cccnc1Oc1ccccc1	0	-1	0.2	11	10	1.4	-7.7	x	-4	2
N#CCSc1nnc(-c2ccc(S(=O)(=O)N3CCOCC3)cc2)n1CC1CCCO1 (stereo unspecified)	-21	-11	0.5	x	x	x	1.1	2	10	-7
CCOc1ccc(C(NC(=O)c2ccco2)c2ccc(OC)c(OC)c2)cc1 (stereo unspecified)	6	-17	0.2	x	x	x	-1.4	-7	0	-4
CN1C(=O)C(C)(C)c2cc(S(=O)(=O)NCC(=O)NCc3ccccc3)ccc21	0	0	0.4	x	x	x	1.1	-1	5	-9
COc1cc(C(=O)N2CCN(S(=O)(=O)c3ccc(C)cc3)CC2)ccc1OCc1c(C)noc1C	-4	7	0.5	x	x	x	-2.2	-11	5	10
Cc1[nH]nc2c1/C(=N\O)CCC2	-14	1	0.8	8	1	-0.6	3.9	-6	11	1
C=CCN1C(=O)c2ccc(C(=O)N(CC)CC(=O)Nc3ccc(OC)cc3)cc2C1=O	0	-11	0.5	22	4	1.5	0.0	x	-4	-9
N#Cc1c(NC2CCCCC2)nc(-c2ccco2)c2c1CCCC2	x	-7	0.1	x	x	x	-1.6	x	8	23
